Assay outcomes as filed in PubChem.
HSV replic up: enhancers of HSV replication in host cells, fold increase, host cell viability; HSV replication augmentation in cells; maximum fold increase; 0.005% of 220,000 active;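 active = peak rise of 1.5-fold or more in the series; inconclusive = self-fluorescent or not available for retest; tested in PC3 cells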;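 note: first round at 10 µM; read as green reporter fluorescence; hits show the peak of a series up to 25 µM; 1 = signal of infected wells without compound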
GALR2 ag: GALR2 receptor agonists, primary screen, cell-based; Galanin receptor type 2 (Homo sapiens), O43603; GALR2-expressing cells, agonist activation read-out; activation, %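 (tested at 5 µM)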; 0.48% of 140,000 active; AID 803, 2007;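 active = above mean plus 3 SD of all compounds, about 5% in these data, not always enough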;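 note: 0% = vehicle buffer wells and 100% = reference agonist at full effect; tested in CHO reporter cells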
Target sequence (O43603 whole entry, looked up): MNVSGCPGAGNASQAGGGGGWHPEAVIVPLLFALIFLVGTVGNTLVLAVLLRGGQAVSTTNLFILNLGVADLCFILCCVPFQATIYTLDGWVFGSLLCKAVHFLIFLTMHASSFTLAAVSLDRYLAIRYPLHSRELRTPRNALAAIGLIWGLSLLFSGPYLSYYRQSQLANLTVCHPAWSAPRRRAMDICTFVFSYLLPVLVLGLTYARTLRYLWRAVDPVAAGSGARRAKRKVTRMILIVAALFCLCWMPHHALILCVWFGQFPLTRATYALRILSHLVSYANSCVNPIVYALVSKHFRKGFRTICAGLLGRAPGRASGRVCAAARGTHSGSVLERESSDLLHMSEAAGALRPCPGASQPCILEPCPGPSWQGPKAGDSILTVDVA
PKD1 kinase inh: inhibitors of human PKD1 kinase, biochemical, fluorescence polarization. inhibition, %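 (about 10 µM by stock and volumes)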. Serine/threonine-protein kinase D1 (Homo sapiens), Q15139. 0.056% of 200,000 active. PKD1 kinase fluorescence polarization assay. AID 797, 2007;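 active = inhibition of 50% or more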;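 note: controls were vehicle for no effect and a reference inhibitor for full effect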
Insulin prom inh: inhibitors of insulin promoter-driven GFP, primary screen, imaging, TRM-6 cells (human fetal islet line), eGFP reporter, cell count; 0.9% of 130,000 active; inhibition, % at 2 µM; reporter expression induced with tamoxifen;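 active = inhibition above the mean plus 3 SD, with well images judged a real hit on visual review, cut at about 60% in these data, passing the limit was not always enough; inconclusive = inhibition over the cutoff but images rejected on review; inactive = inhibition not above the cutoff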
RGS16-Gao HTS: modulators of RGS16 binding to Galphao, primary screen, biochemical, human proteins, multiplexed bead flow cytometry | binding response (% of control), % at 10 µM | Regulator of G-protein signaling 16 (Homo sapiens) + Guanine nucleotide-binding protein … | AID 1441, 2008 | bead-based flow cytometry RGS16-Galphao binding, fluorescence; actives lie on both sides | 0.38% of 220,000 active;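 active = below 25% or above 175%, edge rows of some plates excepted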;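 note: Galphao activated by GDP with aluminum fluoride before binding; 100% = wells without compound and 0% = beads without RGS; some results beyond the cut were filed as inactive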
Target sequence (O15492 whole entry, looked up): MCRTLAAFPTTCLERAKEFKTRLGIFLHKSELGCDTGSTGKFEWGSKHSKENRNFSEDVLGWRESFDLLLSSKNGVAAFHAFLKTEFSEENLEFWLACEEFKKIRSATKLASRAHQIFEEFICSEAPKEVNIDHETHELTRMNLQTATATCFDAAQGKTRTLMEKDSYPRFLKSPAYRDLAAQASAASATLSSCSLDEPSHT
Target sequence (P09471 whole entry, looked up): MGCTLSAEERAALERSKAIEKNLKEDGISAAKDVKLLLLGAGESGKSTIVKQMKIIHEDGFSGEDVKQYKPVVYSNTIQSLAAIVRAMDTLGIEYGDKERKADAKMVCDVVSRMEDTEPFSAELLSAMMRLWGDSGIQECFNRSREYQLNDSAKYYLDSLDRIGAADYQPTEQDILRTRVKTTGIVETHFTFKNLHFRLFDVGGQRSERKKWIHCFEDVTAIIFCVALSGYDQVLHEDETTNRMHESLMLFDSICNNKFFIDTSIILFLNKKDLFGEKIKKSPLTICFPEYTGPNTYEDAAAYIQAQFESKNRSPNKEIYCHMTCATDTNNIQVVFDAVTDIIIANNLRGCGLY
Insulin prom inh cell count: also measured in Insulin prom inh; calls as there; normalized cell count, %; measured here: cell count, toxicity; reference of the scale not given here;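 cells exposed to compound for 48 h; stained nuclei by imaging scaled within each plate; lower means fewer cells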
HSV replic up primary fold: recorded beside HSV replic up, whose call it bears; fold increase; compound at 10 µM; measured here: primary screen fold increase 10 uM; tested in PC3 cells;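 GFP signal in the first replicate; 1 = infected wells without compound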
Active calls of the source: *; i = inactive; ? = inconclusive; . = no result given. An unsorted share of the library. Share with any hit: about 1.3%.

Value order – HSV replic up | HSV replic up primary fold | GALR2 ag | PKD1 kinase inh | Insulin prom inh | Insulin prom inh cell count | RGS16-Gao HTS
CCCCNC(=O)C1CCN(C/C(C)=C/c2ccccc2)CC1
 : i | 0.85 | 0.6 | -8.7 | 2.6 | 88.0 | 103.8
COc1ccc(-c2nnn(CC(=O)N(CC(=O)NC3CCCC3)Cc3cccs3)n2)cc1OC
 : i | 1.09 | -1.0 | 3.5 | -84.4 | 90.2 | 102.8
Cc1nc2scc(-c3ccc(C(C)C)cc3)c2c(=O)n1N
 : i | 0.96 | . | 4.5 | . | . | 101.3
Cc1cc(C)c(NC(=O)Cn2c(=O)n(Cc3ccco3)c(=O)c3ccccc32)c(C)c1
 : i | 1.03 | -2.4 | -6.5 | -55.6 | 105.1 | 104.8
COc1ccc(C(O)Cn2cc([N+](=O)[O-])nc2C)cc1 (configuration not stated)
 : i | 1.18 | . | . | . | . | 100.7
O=C(Cn1ccc([N+](=O)[O-])n1)Nc1nc2ccccc2s1
 : i | 0.98 | . | -2.2 | -20.0 | 87.0 | 61.3
COc1cc(C(=O)N2c3ccccc3CC2C)cc(OC)c1OC (configuration not stated)
 : i | 0.91 | -1.9 | -6.8 | -135.0 | 164.9 | 84.2
COc1ccccc1NC(=S)NC1CCCCC1
 : i | 0.93 | -0.2 | -4.2 | -3.3 | 102.5 | 108.6
Fc1cc(F)cc(NC(=S)N2CCC(c3ccccc3)C2)c1 (configuration not stated)
 : i | 0.86 | . | -2.7 | . | . | 104.7
CC(=O)c1ccc(NC(=O)c2cc(Cl)nc3ccccc23)cc1
 : i | 0.95 | . | -2.6 | . | . | 100.2
CCOC(=O)N1CCC(NCCNC(=O)c2ccco2)CC1
 : i | 1 | . | -5.5 | . | . | 106.3
Cc1c(NC(=O)COC(=O)c2cc(-c3ccc(-c4ccccc4)cc3)nc3ccccc23)c(=O)n(-c2ccccc2)n1C
 : i | 0.84 | -0.2 | 0.4 | . | . | 99.6
Oc1[nH]c2ccccc2c1C1=NCCCC1
 : i | 0.95 | -0.4 | 10.1 | . | . | 81.6
CCOc1ccc(CCNC(=O)c2ccc(N3CCCC3=O)cc2)cc1OCC
 : i | 1.01 | -0.9 | -3.9 | 8.1 | 90.2 | 102.9
CCOC(=O)c1csc(NC(=O)c2cc3ccccc3o2)n1
 : i | 1.03 | . | . | . | . | 98.7

The list continues:
Value order – HSV replic up | HSV replic up primary fold | GALR2 ag | PKD1 kinase inh | Insulin prom inh | Insulin prom inh cell count | RGS16-Gao HTS
Cn1ccnc1SCC(=O)NC12CC3CC(CC(C3)C1)C2
 : i | 1.07 | 0.6 | -2.5 | . | . | 101.1
Cc1nnc(SCC2=C(C(=O)O)N3C(=O)C(NC(=O)c4cc(F)c(F)cc4Cl)C3SC2)s1 (configuration not stated)
 : i | 1.01 | . | -2.4 | 46.0 | 119.4 | 97.5
COc1ccc(-c2coc3cc(O)ccc3c2=O)cc1O
 : i | 0.61 | . | 7.5 | . | . | 100.4
Cc1cc(C)c2cc(C#N)c(N3CCCN(S(=O)(=O)c4ccccc4)CC3)nc2c1
 : i | 0.99 | 0.1 | -6.6 | -343.8 | 62.5 | .
Cc1cc(=O)oc(C)c1C(=O)NCc1ccccn1
 : i | 1.01 | -1.0 | -9.7 | 3.0 | 124.9 | 97.4
O=[N+]([O-])c1ccc(Cl)cc1Sc1nc2ccccc2o1
 : i | 0.78 | -2.3 | -11.3 | 15.4 | 91.4 | 97.0
CN(Cc1cccnc1)Cc1c(C(=O)N2CCc3ccccc3C2)nc2ccc(Cl)cn12
 : i | 1.08 | . | 1.4 | . | . | 98.7
Cc1cc(C)n(-c2ccc(C(=O)OCC(=O)Nc3ccc(S(=O)(=O)N4CCCCC4)cc3)cc2)n1
 : i | 0.91 | -1.0 | -0.9 | -40.6 | 77.6 | 55.1
CC(C)(C)c1nn2cnnc2n(/N=C/c2ccccc2)c1=O
 : i | 1.04 | -1.9 | -9.1 | . | . | 120.2
CCOC(=O)COc1ccccc1/C=N/O
 : i | 0.98 | -0.9 | -0.2 | 11.1 | 116.0 | 121.8
O=C(NCCc1ccc(Cl)cc1)c1cc(-c2ccncc2)nc2ccccc12
 : i | 0.82 | . | . | . | . | 100.0
Cc1nc(S(=O)(=O)NC2CCCCC2)c(C#N)c(C)c1Cl
 : . | . | -0.2 | -5.1 | 12.1 | 103.7 | 100.8
COc1cccc(CNC(=O)CCC2CCCN(C(=O)c3ccc(OC)c(F)c3)C2)c1 (configuration not stated)
 : i | 0.95 | . | -3.2 | . | . | 93.2
O=C1CC(=C2c3ccccc3-c3ccccc32)C(=O)N1CCCCN1CCN(c2ccccc2)CC1
 : i | 0.84 | -1.4 | -0.8 | 20.9 | 140.8 | 99.1
O=C(COc1ccc(-c2nnco2)cc1)NCc1ccccc1Cl
 : i | 0.95 | 0.5 | 0.6 | . | . | 101.3

Seven entries out of the list, arranged by count of non-hydrogen atoms, largest number first.
Value order – HSV replic up | HSV replic up primary fold | GALR2 ag | PKD1 kinase inh | Insulin prom inh | Insulin prom inh cell count | RGS16-Gao HTS
Cc1nnc(SCC2=C(C(=O)O)N3C(=O)C(NC(=O)c4cc(F)c(F)cc4Cl)C3SC2)s1 (configuration not stated)
 : i | 1.01 | . | -2.4 | 46.0 | 119.4 | 97.5
Cc1cc(C)c2cc(C#N)c(N3CCCN(S(=O)(=O)c4ccccc4)CC3)nc2c1
 : i | 0.99 | 0.1 | -6.6 | -343.8 | 62.5 | .
CC(C)(C)c1nn2cnnc2n(/N=C/c2ccccc2)c1=O
 : i | 1.04 | -1.9 | -9.1 | . | . | 120.2
Cc1nc(S(=O)(=O)NC2CCCCC2)c(C#N)c(C)c1Cl
 : . | . | -0.2 | -5.1 | 12.1 | 103.7 | 100.8
O=[N+]([O-])c1ccc(Cl)cc1Sc1nc2ccccc2o1
 : i | 0.78 | -2.3 | -11.3 | 15.4 | 91.4 | 97.0
Cc1cc(=O)oc(C)c1C(=O)NCc1ccccn1
 : i | 1.01 | -1.0 | -9.7 | 3.0 | 124.9 | 97.4
CCOC(=O)COc1ccccc1/C=N/O
 : i | 0.98 | -0.9 | -0.2 | 11.1 | 116.0 | 121.8

(continued)
Value order – HSV replic up | HSV replic up primary fold | GALR2 ag | PKD1 kinase inh | Insulin prom inh | Insulin prom inh cell count | RGS16-Gao HTS
CC(C)(C)c1c(Cl)c(O)c(-c2ccccc2)c(=O)n1-c1ccccc1
 : i | 1.22 | . | -1.3 | -5.6 | 57.0 | 106.8
O=C(Oc1cc(=O)oc2c1c(=O)n1c3c(cccc23)CC1)c1ccccc1
 : i | 0.9 | . | . | . | . | 92.3
N=c1sccn1CC(=O)NCc1ccc(Cl)cc1Cl
 : i | 1.04 | . | 1.0 | . | . | 98.9
O=C(c1ccccc1)N1CCC(O)(c2cccnc2)CC1
 : . | . | -0.7 | 3.1 | . | . | 104.9
CCOC(=O)c1sc2nc(C)nc(Nc3ccc(OC)cc3)c2c1C
 : i | 0.91 | . | -1.8 | . | . | 197.9
Cc1cc(C(=O)COC(=O)c2ccc(O)cc2)c(C)n1-c1ccccc1F
 : i | 1 | . | -2.1 | 10.0 | 140.3 | 105.3
COc1ccc(Cl)cc1C(=O)Nc1cc(=O)n(C)c(=O)n1C
 : i | 1.01 | . | . | . | . | 110.6
O=C(O)c1cn(-c2ccc(N3CCCC3)c(F)c2)c2c(F)c(F)c(F)cc2c1=O
 : ? | . | . | -2.5 | . | . | 102.3
COc1ccc(CNc2nc(NCc3ccc(OC)cc3)n(C(=O)c3ccncc3)n2)cc1
 : i | 0.92 | . | 3.9 | . | . | 97.1
Cc1ccc(CNC(=O)COC(=O)CSc2ccc(Br)cc2C)cc1
 : i | 1.02 | -0.8 | 0.4 | . | . | 102.1
CN1CCc2[nH]c3ccc(C(=O)NN)cc3c2C1
 : i | 0.81 | -2.7 | -2.6 | 0.0 | 96.2 | 99.9
Cc1ccc(NC(=O)C2SC(=Nc3ccccc3)C(C(=O)Nc3ccc(Cl)cc3)=C2N)cc1 (configuration not stated)
 : i | 1.1 | . | 4.0 | . | . | 93.5
N#Cc1nc(-c2ccco2)oc1NCc1cccnc1
 : i | 0.7 | -7.1 | 8.5 | 7.1 | 61.1 | 103.8
Cc1cc(C(=O)Nn2c(C)nc3ccccc3c2=O)ccc1[N+](=O)[O-]
 : i | 0.82 | . | 1.3 | . | . | 95.2
CCn1c(=O)cc(SCC(=O)N2CCCCC2)c2ccccc21
 : i | 1.41 | 0.1 | -7.4 | . | . | 78.8

(further entries)
Value order – HSV replic up | HSV replic up primary fold | GALR2 ag | PKD1 kinase inh | Insulin prom inh | Insulin prom inh cell count | RGS16-Gao HTS
COc1cc(/C=C(\C#N)C(=O)NCC2CCCO2)ccc1O (configuration not stated)
 : i | 0.99 | -0.6 | 7.0 | . | . | 103.6
c1nc(N2CCOCC2)c2c3c(sc2n1)CCCC3
 : i | 1 | -2.1 | -1.8 | 0.0 | 141.0 | 103.8
COc1ccc(C2c3c(noc3C)CC(C)(O)C2C(C)=O)cc1 (configuration not stated)
 : i | 0.91 | . | . | . | . | 98.8
COC(=O)Cn1c2ccccc2c2nc(=O)cc(C)n21
 : i | 0.97 | . | 1.9 | . | . | 103.7
COc1cccc(-c2nn3c(-c4cc(C)[nH]n4)nnc3s2)c1
 : i | 0.85 | -0.8 | 2.7 | 8.3 | 92.7 | 108.5
COc1cccc(C2/C(=C(/O)c3ccc(F)cc3)C(=O)C(=O)N2CCN(C)C)c1 (configuration not stated)
 : i | 1.17 | -1.1 | -10.4 | 18.2 | 86.7 | 142.1
O=C(NCc1ccc(Cl)cc1)c1ccc(COCC(F)(F)F)o1
 : i | 0.87 | 0.4 | -0.3 | -34.3 | 146.3 | 98.7
CC(C)CCC1(CCNC(C)c2cccs2)CCOC(C)(C)C1 (configuration not stated)
 : i | 0.86 | . | . | . | . | 101.2
CCOc1cc(/C=C(/C#N)c2nc3ccccc3[nH]2)ccc1Oc1ccc([N+](=O)[O-])cn1
 : i | 0.89 | -0.1 | -10.1 | . | . | 101.3
COc1cc(CNC(C)(C)CO)ccc1OCC(=O)Nc1ccc(Br)cc1
 : i | 0.78 | -1.4 | 1.1 | -34.3 | 297.0 | 101.2
Cc1ccc(-c2noc(C3CCCN(C(=O)C4CCCCC4)C3)n2)o1 (configuration not stated)
 : i | 0.98 | -1.4 | -6.6 | 27.0 | 147.1 | 104.1
N#CCCn1nc(-c2ccccc2)cc1Nc1ccccc1NC(=O)c1cccs1
 : i | 0.78 | -1.2 | 8.1 | 10.7 | 108.5 | 103.4
CC1(C)CC(=O)/C(=C(\O)CCCN2C(=O)c3ccccc3C2=O)C(=NCC(=O)O)C1
 : i | 0.97 | . | -7.0 | 36.4 | 69.6 | 111.1
COC(=O)CN(c1ccc(F)cc1)S(=O)(=O)c1ccccc1
 : i | 0.97 | -4.1 | -4.6 | -18.2 | 90.3 | 103.2
CCN(CC)CCN=CC1=C(O)CNC1=O
 : i | 0.89 | 2.2 | -10.8 | 64.3 | 81.5 | 113.7

Other results follow.
Value order – HSV replic up | HSV replic up primary fold | GALR2 ag | PKD1 kinase inh | Insulin prom inh | Insulin prom inh cell count | RGS16-Gao HTS
CC1=Nc2ccc(C)cc2N(Cc2ccccc2)C(=O)C1
 : i | 0.92 | -2.9 | -4.3 | . | . | 116.2
CNC(=O)COC(=O)c1cc2c(s1)CCCC2
 : i | 1.1 | . | 3.8 | . | . | 96.5
CCOC(=O)C1Cc2ccccc2C(=O)O1 (configuration not stated)
 : i | 0.9 | -3.4 | -2.9 | . | . | 100.4
Cc1cccc(C)c1-n1c(C)cc(/C=N/NC(=O)CSc2ncccn2)c1C
 : i | 1.02 | -0.5 | -3.3 | 16.7 | 127.2 | 107.5
COc1ccc(NC(=O)C2CCCN2S(=O)(=O)c2cccc3cccnc23)c(OC)c1 (configuration not stated)
 : i | 0.9 | -1.3 | -6.3 | . | . | 108.1
CCCCCCCC1(C)NC(=O)NC1=O (configuration not stated)
 : i | 1.18 | . | . | . | . | 101.8
OCC1(Cc2ccccc2)CCCN(Cc2ccn[nH]2)C1 (configuration not stated)
 : i | 0.98 | . | 6.1 | 53.3 | 73.5 | 107.0
CCOC(=O)C1CCCN(C(=O)c2csc(-c3ccc4c(c3)CCO4)n2)C1 (configuration not stated)
 : i | 0.92 | . | . | . | . | 97.8
COc1ccccc1CNC(=O)c1cc(-c2cccnc2)nc2ccccc12
 : i | 0.91 | . | -2.2 | 5.6 | 96.0 | 104.8
